Bioassay records from PubChem BioAssay.
TRPML1 inh = human mucolipin-1 channel inhibition. Q9GZU1. TRPML1-inducible cells, Ca2+ dye fluorescence, FDSS; active compounds read low; inhibition of EC80 agonist-evoked calcium signal. activity change, negative = inhibition, % (concentration not given with the values). 390,000 compounds, 0.02% hits. AID 624415; in the data active means activity change below about -50%; inconclusive means about -30% to -50%; inactive means above about -30%;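 note: stimulus is agonist 54-4 at its EC80 concentration; % is set by controls: 0 for no effect and ±100 for the full control effect; the text of the record puts the active cut at -80%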
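Calcium fluorescence in TRPML1-DL cells induced overnight with Tet: a 110 s read after compound pin addition, then a 110 s antagonist read after challenge with 54-4 at 4 uM final (EC80).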
PINK1 modulator = PINK1 expression modulation. Potency, µM (highest dose often 76.6 µM), inactives show top-dose activation (PINK1 increase), usual class: activators. 410,000 compounds, 0.2% hits. PINK1 immunofluorescence, high-content cytometry, 24 h. AID 624263; active = well fitted activation curve with a large enough effect; inconclusive = small, poorly fitted or top-dose-only effect; inactive = flat fitted curve, though single readings scatter; cell line not stated here;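 note: potency is the fitted concentration of half-maximal effect; % of control where 0% means no effect; nearly all actives have a fitted effect of over 65% in size; a mitochondrial uncoupler was the plate control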
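Compound titrations (5 concentrations, 24 h) on a stable cell line; DMSO and CCCP controls. Endpoint: fixed-cell PINK1 immunofluorescence with mitochondrial, cell and nuclear markers, scanned by microplate cytometer.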
D2 potentiator = positive allosteric modulators of human D2 dopamine receptor; DiscoveRx D2 beta-arrestin cells, luminescence, 90 min; 100% = 57 uM dopamine signal; P14416; 360,000 compounds, 0.23% hits; potentiation, % (concentration not given with the values); active = potentiation of 50% or more; inconclusive = 30% to 50%; inactive = 30% or less;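 note: tested on top of an EC20 dose of dopamine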
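D2 cells co-treated with compound plus 50 nM dopamine (EC20) for 90 min at 37 deg C to detect potentiation. Beta-arrestin recruitment was read as enzyme-fragment luminescence after 1 h at ambient temperature. Full response was set by 57 uM dopamine.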
D2 ag = activates the human D2 dopamine receptor; DiscoveRx PathHunter D2 beta-arrestin, luminescence, 90 min; 100% = 57 uM dopamine signal; 360,000 compounds, 0.084% hits; activation, % (test concentration not listed); in the data active = activation above about 40%; inconclusive = about 15% to 40%; inactive = below about 15%; note: compound concentration not given in the record; the text of the record calls up to 30% inactive
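Agonist mode: compounds alone added to overnight-plated D2 PathHunter cells for 90 min at 37 C, with 57 uM final dopamine (EC100) defining full response. Beta-arrestin recruitment detected by chemiluminescent reagent, read after 1 h at ambient temperature.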
Six1-Eya2 blk = Six1/Eya2 interaction inhibition | Q15475+O00167 | AlphaScreen GST-Six1/His-Eya2 binding, biochemical; active compounds read low; control for the full effect not named in the record | activity change, % (test concentration not listed) | 360,000 compounds, 0.56% hits; in the data active = activity change below about -65%; inconclusive = about -30% to -65%; inactive = above about -30%; note: % is set by controls: 0 for no effect and ±100 for the full control effect
Target sequence (O00167 whole entry, looked up): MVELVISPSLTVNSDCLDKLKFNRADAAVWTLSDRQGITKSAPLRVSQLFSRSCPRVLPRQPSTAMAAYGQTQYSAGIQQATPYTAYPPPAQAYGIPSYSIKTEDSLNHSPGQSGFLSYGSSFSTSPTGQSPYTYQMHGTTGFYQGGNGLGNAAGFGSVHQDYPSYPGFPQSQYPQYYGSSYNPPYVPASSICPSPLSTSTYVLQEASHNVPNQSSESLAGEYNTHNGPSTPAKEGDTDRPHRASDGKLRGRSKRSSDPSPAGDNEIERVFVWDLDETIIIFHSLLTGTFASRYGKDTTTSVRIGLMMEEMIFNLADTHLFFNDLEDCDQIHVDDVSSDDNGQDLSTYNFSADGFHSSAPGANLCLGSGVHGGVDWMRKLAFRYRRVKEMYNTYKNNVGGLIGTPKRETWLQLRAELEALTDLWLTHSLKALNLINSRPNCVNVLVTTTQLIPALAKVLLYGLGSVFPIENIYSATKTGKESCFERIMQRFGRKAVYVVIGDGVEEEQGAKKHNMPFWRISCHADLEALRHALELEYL
Target sequence (Q15475 whole entry, looked up): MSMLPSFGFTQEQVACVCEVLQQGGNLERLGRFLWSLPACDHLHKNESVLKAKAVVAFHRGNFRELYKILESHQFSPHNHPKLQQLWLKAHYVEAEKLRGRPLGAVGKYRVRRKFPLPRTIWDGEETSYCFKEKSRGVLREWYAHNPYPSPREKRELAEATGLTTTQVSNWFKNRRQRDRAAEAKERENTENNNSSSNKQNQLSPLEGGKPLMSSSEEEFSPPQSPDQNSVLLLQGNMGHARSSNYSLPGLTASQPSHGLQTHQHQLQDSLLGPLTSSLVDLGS
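AlphaScreen luminescence read after one hour at 37 °C in darkness. Pin-transferred compounds met GST-Six1 and His-Eya2 protein (5X stock 250 nM/500 nM) plus glutathione donor and Ni-chelate acceptor beads (5X, 50 ug/mL).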
TRPML1 agonist = agonists of human TRPML1 channel; activation, % (concentration not given with the values); Q9GZU1; TRPML1-expressing cells, Ca2+ dye fluorescence, FDSS; host cell line not named in the record; reference of the full effect not given here; 410,000 compounds, 0.12% hits; in the data active = activation above about 50%; inconclusive = about 30% to 50%; inactive = below about 30%; note: 0% is about no effect; the text of the record puts the active cut at 80%
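Calcium fluorescence on an FDSS kinetic reader gave the read-out. Tet-induced TRPML1-DL cells were plated overnight, dye-loaded (Ca8 with quencher, 45-90 min, room temperature, dark), then read 110 s after compound addition, and again 110 s after 4uM final 54-4 (EC80).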
Active calls of the source: *; ? = inconclusive; / = not tested or not shown; [ ] = another dose, or the depositor's remark.

A first look (3 entries):
molecule | Six1-Eya2 blk | D2 ag | TRPML1 agonist | PINK1 modulator | TRPML1 inh | D2 potentiator
Clc1cccc(CNc2ccn3nc(-c4ccc(OCCN5CCOCC5)cc4)cc3n2)c1 | -14 | 10 | 0.4 | 26% | / | 12
COC(=O)/C(=C\Nc1ccccc1N)c1ncc(C(F)(F)F)cc1Cl | -10 | -3.8 | -0.7 | 5.0% | -6 | -13
N#Cc1cc(-c2ccccc2)c[nH]c1=O | 5 | 0.1 | 2.7 | -3.2% | -8 | -2

Main list, from the first entry:
molecule | Six1-Eya2 blk | D2 ag | TRPML1 agonist | PINK1 modulator | TRPML1 inh | D2 potentiator
Clc1cccc(CNc2ccn3nc(-c4ccc(OCCN5CCOCC5)cc4)cc3n2)c1 | -14 | 10 | 0.4 | 26% | / | 12
COC(=O)/C(=C\Nc1ccccc1N)c1ncc(C(F)(F)F)cc1Cl | -10 | -3.8 | -0.7 | 5.0% | -6 | -13
N#Cc1cc(-c2ccccc2)c[nH]c1=O | 5 | 0.1 | 2.7 | -3.2% | -8 | -2
N#C/C(=C/c1ccc(O)c([N+](=O)[O-])c1)C(=O)Nc1ccccc1 | ? | -12 | 0.2 | ? | -8 | -15
Cc1ccc(CN2CC(C(=O)N(Cc3nnc(-c4ccccc4Cl)o3)C3CC3)CC2=O)cc1 (stereo unspecified) | 0 | -2.5 | -0.9 | 0.7% | -2 | 26
O=C(CN(Cc1ccc(F)cc1)C(=O)c1ccco1)NCc1ccc(F)cc1 | 5 | -4.5 | 0.0 | -1.0% | 0 | -10
NS(=O)(=O)c1ccc(NC(=S)NC(=O)c2cccnc2)cc1 | 8 | -7.4 | -0.7 | 1.7% | 8 | -10
CCOc1ncccc1C(=O)Nc1cccc(C(=O)Nc2cccc(S(=O)(=O)CCO)c2)c1 | -25 | 0.1 | 1.6 | 1.5% | 20 | 3
CC/C(C)=N/NS(=O)(=O)c1ccc(C)c([N+](=O)[O-])c1 | 16 | -1.7 | 1.3 | -0.9% | -10 | -8
CCN(c1ccccc1)S(=O)(=O)c1ccc(NC(=O)c2cc(=O)c3cc(C)ccc3o2)cc1 | / | / | -0.6 | 2.4% | 12 | /
Cc1cc(C)cc(N(CC(=O)NC2CCCCC2)C(=O)CCCC(=O)Nc2ccccn2)c1 | 2 | -2.1 | -0.5 | 1.6% | -6 | -9
c1ccc(CCc2nn3c(Cn4cnc5ccccc54)nnc3s2)cc1 | -1 | 1.6 | 4.1 | -2.1%[38.3 µM] | -17 | 7
Cc1oc(-c2cccs2)nc1CN1CCC(c2ccccc2)CC1 | -7 | -4.0 | 0.2 | 1.0% | -1 | -33
COc1ccc(OC)c(NC(=O)CSc2ncnc3sc(C)cc23)c1 | ? | -2.3 | -0.5 | 9.2% | 5 | -6
O=C(O)[C@H]1CCCC[C@H]1C(=O)NCCc1ccccc1 | 3 | -1.0 | 0.9 | ? | 28 | -2
CN(C)/C=C(\C(=O)c1ccccc1)c1nnnn1-c1ccc(F)cc1 | 4 | 0.9 | 1.5 | -0.6% | -29 | 1
Cc1ccc(/C=C(\C#N)C(=O)Nc2cccc(Br)c2)o1 | / | / | 0.3 | 1.2% | 11 | /
O=C(CCNC(=O)c1ccccc1Cl)Nc1ccncc1 | 2 | -0.9 | 0.2 | 1.0% | 4 | -9
O=C(CNc1cccc2ccccc12)N/N=C/c1ccccn1 | -15 | 4.2 | -0.1 | -0.8% | 22 | 2
Cc1ccccc1CC(=O)c1ccc(O)c(C)c1O | 9 | 0.5 | 2.1 | 2.6% | 7 | -2

(next part)
molecule | Six1-Eya2 blk | D2 ag | TRPML1 agonist | PINK1 modulator | TRPML1 inh | D2 potentiator
Cc1noc2ncnc(Oc3ccccc3)c12 | 6 | -2.3 | -0.5 | -0.9% | -3 | -6
N#C/C(=C\Nc1ccccc1O)c1nc2ccccc2o1 | -5 | 8.1 | 0.7 | ? | -1 | 23
COc1ccc(CC(=O)Nc2c3c(nn2-c2cccc(Cl)c2)CS(=O)C3)cc1 (stereo unspecified) | 4 | -1.7 | 7.8 | -2.6% | 0 | -18
CCc1noc(C)c1C(=O)N1CCN(S(=O)(=O)c2ccc(C)cc2)CC1 | 20 | 0.5 | -0.8 | -0.6% | -10 | -7
O=S1(=O)C=C(Sc2nc3ccccc3s2)c2ccccc21 | -22 | -3.4 | 3.2 | -3.2% | -10 | -48
CCOC(=O)COn1c(=O)c(-c2cccs2)[n+]([O-])c2ccccc21 | -1 | 0.4 | -0.7 | 2.4% | 5 | 1
CCC(=O)c1ccc(Oc2nc3c(c(=O)n(C)c(=O)n3C)n2CC)cc1 | -7 | -2.9 | 0.5 | 0.2% | 15 | -3
CCC(=O)N/N=c1/sc2ccccc2n1C | 5 | -0.9 | 0.4 | 4.0% | 0 | -13
CCOC(=O)C(C(=O)OCC)C(C#N)c1ccccc1 (stereo unspecified) | 2 | -1.2 | -0.5 | -1.7% | 3 | -8
Cc1cc(OCC(=O)OCC(=O)N2CCCc3ccccc32)ccc1Cl | 0 | 2.8 | 1.7 | -0.1% | -18 | -9
NC(c1csc(Nc2ccc(C(=O)NCCCO)cn2)n1)c1ccccc1Cl (stereo unspecified) | ? | -4.5 | -0.3 | 0.9% | 24 | -11
CCC(C)c1ccc(NC(=S)N2CCCC2)cc1 (stereo unspecified) | 1 | -1.9 | -0.4 | 0.8% | 7 | -3
CN(Cc1ccccc1)S(=O)(=O)c1cc2c3c(c1)CCN3C(=O)CC2 | 2 | -3.9 | 1.1 | 3.9% | ? | -9
CCc1c(C)sc(NC(=O)c2cc(C(C)C)on2)c1C#N | 3 | -8.1 | / | 6.0% | / | -10
Cc1ccnc(NS(=O)(=O)c2ccc(NC(=O)CN3C(=O)c4ccccc4S3(=O)=O)cc2)n1 | 6 | -1.8 | 0.0 | 1.1% | -11 | -4
O=C(c1ccco1)N1CCN(C(=O)C2CCN(S(=O)(=O)c3cccc4nsnc34)CC2)CC1 | -2 | -1.1 | -0.5 | -0.2% | -6 | 9
Cc1ccc(-c2nn3c(C)nnc3s2)cc1NC(=O)COc1ccc(Cl)cc1 | 2 | 0.2 | 0.3 | 10% | 12 | -4
C[C@]12CS(=O)(=O)C[C@H]1SC(=S)N2c1ccccc1 | 4 | -4.4 | -0.6 | 1.7% | -19 | 13
COC(CSc1ncnc2c1oc1nc3c(cc12)COC(C)(C)C3)OC | 2 | -2.8 | -0.5 | 0.1% | 7 | -14
CCN(c1ccccc1)S(=O)(=O)c1nnc(NC(=O)C2CCCCC2)s1 | / | / | 2.2 | 4.5% | -19 | /

Next section
molecule | Six1-Eya2 blk | D2 ag | TRPML1 agonist | PINK1 modulator | TRPML1 inh | D2 potentiator
Cc1cc(N2C(=O)C(O)=C(C(=O)c3cc4ccccc4o3)C2c2cccc(Br)c2)no1 (stereo unspecified) | -14 | 3.2 | 2.1 | ? | 1 | -9
O=C(c1ccc([N+](=O)[O-])o1)N1CCOCC1 | -1 | 7.7 | -0.3 | -0.8% | 3 | 16
CC(=O)CSc1nc(-c2ccccc2)c(-c2ccccc2)o1 | 2 | -4.5 | 2.5 | 3.6% | 11 | -3
O=C(CN(C(=O)CNC(=O)c1cccs1)c1ccccc1F)NC1CCCCC1 | 0 | -0.1 | 1.8 | -2.2% | 16 | 2
Cc1cc(OCC(=O)NC2CC(C)(C)NC(C)(C)C2)c(C)cc1Br | 1 | -0.2 | 1.2 | 3.7% | -4 | -1
CC(C)(c1ccccc1)c1ccc(OCC2CO2)cc1 (stereo unspecified) | 17 | -1.8 | 3.7 | 2.8% | 54 | -7
C=CCN1C(c2ccc(OCC)cc2)=CS/C1=C(\C#N)c1nnc2n1CCCCC2 | -3 | 5.2 | 1.9 | 1.7%[38.3 µM] | 36 | 9
CSc1nccc(-c2sc(SC)c(C#N)c2-c2ccccc2)n1 | 11 | 2.5 | 0.8 | 3.8% | 36 | 4
CC(C)C(C(=O)Nc1ccc2c(c1)OCCOCCOCCOCCO2)N1C(=O)c2ccccc2C1=O (stereo unspecified) | 5 | -3.7 | 1.9 | 0.4% | 21 | -10
COc1cc([N+](=O)[O-])ccc1NC(=O)COC(=O)CCS(=O)(=O)c1ccc(C)cc1 | -13 | 0.2 | 0.1 | -0.1% | -7 | 1
O=S(=O)(c1cc(F)ccc1F)N1CCN(c2ncnc3ccccc23)CC1 | -1 | 6.1 | 0.1 | 8.1% | -1 | 2
O=C(Nc1ccc(OC(F)(F)F)cc1)C1CCN(S(=O)(=O)c2ccc3[nH]c(=O)ccc3c2)CC1 | / | / | 0.8 | -1.5% | -6 | /
COc1cccc(N(CC(=O)NCc2ccco2)C(=O)CCC(=O)Nc2nccs2)c1 | 1 | -1.7 | -0.2 | 3.7% | -9 | -9
Cc1cnc(NC(=O)Cn2cnc3c2c(=O)n(C)c(=O)n3C)s1 | 8 | -0.9 | -0.3 | -0.4% | -6 | -3
O=C(CSc1ncn(-c2ccccc2)n1)Nc1ccc2c(c1)OCCO2 | 0 | -1.5 | 0.6 | -3.9%[38.3 µM] | -9 | -12
COc1ccc(/C=N/NC2=NS(=O)(=O)c3ccccc32)cc1OC | -10 | -0.6 | -0.2 | 0.3% | 14 | -10
Cc1ccc(S(=O)(=O)N2CCCC2CNC(=O)C(=O)NCc2ccc3c(c2)OCO3)cc1 (stereo unspecified) | -4 | -1.4 | -0.1 | 5.1% | -3 | -8
COc1ccc(NC(=O)C2=C(C)Nc3nc(CCCO)nn3C2c2ccc(OC)c(OC)c2)cc1 (stereo unspecified) | 4 | 0.9 | -0.4 | 6.6% | 2 | 3
O=C(N/C=C/n1cnc2cc(C(F)(F)F)ccc21)c1ccc(F)cc1 | 2 | -1.0 | -0.4 | 6.7% | 7 | -7
C[C@H]1CN([C@@H](C)CO)C(=O)c2cccc(NC(=O)c3nc4ccccc4s3)c2O[C@H]1CN(C)C(=O)Nc1ccc(F)cc1 | -2 | 1.1 | -0.1 | 3.4% | -10 | 1

The list continues:
molecule | Six1-Eya2 blk | D2 ag | TRPML1 agonist | PINK1 modulator | TRPML1 inh | D2 potentiator
C[C@@H](NC(=O)C(=O)c1c[nH]c2ccccc12)c1ccccc1 | 0 | 11 | / | 5.4% | / | -8
O=C(N/N=C/c1cccn1-c1ccc(O)cc1)c1cccc2ccccc12 | -2 | -2.6 | 0.4 | -0.3% | 18 | -10
O=C(NCc1ccccc1F)C1CCC(=O)N(Cc2ccc(Cl)cc2)C1 (stereo unspecified) | 0 | -2.9 | -0.4 | 2.5% | 18 | -4
CC1CCN(C(=O)c2ccc3c(c2)N(Cc2ccccc2)C(=O)c2ccccc2S3(=O)=O)CC1 | / | / | 1.8 | 1.4% | 21 | /
O=C(c1ccco1)N1CCC(c2nc3c(nnn3Cc3c(Cl)cccc3Cl)c(=O)[nH]2)CC1 | -19 | 5.4 | 0.9 | -0.1% | -12 | 5
COc1cc(C2NC(=O)NC(C)=C2C(=O)OCC2CCCCC2)ccc1O (stereo unspecified) | -2 | 2.1 | / | 3.0% | / | ?
CCOc1ccc(CC(=O)NCCc2cnc[nH]2)cc1 | -12 | -3.4 | 1.8 | 2.2% | -20 | -9
